TAR Tat displ = HIV-1 TAR-Tat binding disruption; HIV-1 TAR RNA, Tat peptide displacement FRET; stronger effect = higher value; z-score (test concentration not listed); 100,000 compounds, 0.6% hits; AID 1259389;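 note: score is relative to mean and SD of negative controls; some compounds called inactive have numbers as strong as hits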
CDC25B CDK2 inh = human CDC25B-CDK2/CyclinA binding inhibition; P30305+P24941; HTRF CDC25B-CDK2/CyclinA binding, anti-His/anti-Flag; stronger effect = higher value; z-score (concentration not given with the values); 94,000 compounds, 0.72% hits;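 note: score is relative to mean and SD of negative controls; strong numbers were not always called active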
* = called active by the depositor; . = no result given.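 Rule for the calls: active = z-score from 3 up in half or more of its runs; inactive = the rest.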

Each structure is followed by: TAR Tat displ	CDC25B CDK2 inh
> COc1ccc(-c2noc(=O)n2Cc2ccccc2Cl)cc1
→ 1.6	-0.11
> Fc1ccc(-c2nnc3ccc(NCc4ccccc4Cl)nn23)cc1
→ .	-4.2
> CCc1ccccc1-n1ncc2c1ncn1nc(Cc3ccccc3)nc21
→ 1.6	0.43
> COc1ccc(-c2nnc3ccc(SCC(N)=O)nn23)cc1OC
→ .	-1.8
> CCc1nn(C(C)C(=O)N2CCN(c3ccc(Cl)cc3)CC2)c(=O)c2cc3occc3n12 (configuration not stated)
→ 2.2	-2.2
> CC(=O)N1N=C(c2ccncc2)OC1c1cc2c(cc1Cl)OCO2 (configuration not stated)
→ 0.98	.
> Cc1ccc(C)c(S(=O)(=O)Nc2ncn(Cc3ccc(Cl)cc3)n2)c1
→ -0.17	-0.85
> CN(C)CCCN(C(=O)c1nc2ccccc2s1)c1nc2c(F)cc(F)cc2s1
→ 0.5	.
> COc1ccccc1OCCN1C(=O)C(O)(c2c[nH]c3ccccc23)c2ccccc21 (configuration not stated)
→ -1.2	-0.2
> COC(=O)CNC(=O)CCc1c(C)nc2nc(NCc3cccs3)[nH]n2c1=O
→ 0.62	0.04
> CC1CCCC(NC(=O)c2csc3c2CCCC3)C1C (configuration not stated)
→ -0.08	-1.8
> COc1ccc(S(=O)(=O)n2nc(C)c(S(=O)(=O)N3CCOCC3)c2C)cc1OC
→ 0.61	.
> CCc1c(C)nc2c(C#N)c(C)[nH]n2c1=O
→ 0.84	0.18
> Cc1cccc(CN2C3=NCCCN3c3ccccc32)c1
→ 2.2	0.31
> Cc1c(N2CCN(C(=O)CC(C)C)CC2)c(=O)n(C)c(=O)n1C
→ 0.87	.
> O=C(NCC1CCCO1)N1CCC2(CC1)Nc1cc(F)ccc1-n1cccc12 (configuration not stated)
→ 0.24	.
> CCCCC1CC(CSc2ncn[nH]2)OC1=O (configuration not stated)
→ .	-5.5
> CN1CCN(CCCNC(=O)c2cc3sccc3n2C)CC1
→ -2.3	-1.6
> COC(=O)c1ccc(C2c3c(oc4ccccc4c3=O)C(=O)N2c2nncs2)cc1 (configuration not stated)
→ 0.52	-1.1
> CC(=O)Nc1ccc(S(=O)(=O)N(C2=NCC(C)S2)c2ccccc2)cc1 (configuration not stated)
→ 0.76	0.99
> Cc1ccc(C2C3=C(CC(C)(C)CC3=O)N=C3c4ccccc4C(=O)C32)cc1 (configuration not stated)
→ -1.4	-0.61
> O=C(Sc1cccs1)c1cncc(C#Cc2ccccc2)c1
→ .	-2
> CCN1CCCC1CNC(=O)c1nn(C)c2c1CSc1ccccc1-2 (configuration not stated)
→ 0.54	-0.54
> CCc1ccnc(NS(=O)(=O)c2cccs2)c1
→ .	0.08
> CC1(C)CC(=O)C2=C(C1)Oc1ccccc1C2CC(=O)c1cccs1 (configuration not stated)
→ -0.31	0.02
> Cn1c(=O)c2sccc2n2c(CCC(=O)N3CCN(c4ccc(F)cc4)CC3)nnc12
→ 3.2	-1.2
> Cc1csc2nc(CSc3nnc(-c4ccco4)n3C)cc(=O)n12
→ 0.66	.
> CCN(CC)c1ccc(CNCCCSc2nnnn2C)cc1
→ 1.2	0.31
> CCCCC1=NN(C(=O)c2ccc(C)cc2)C(O)(C(F)(F)F)C1 (configuration not stated)
→ .	-1.3
> CCOC(=O)c1c(N)oc2c(-c3ccc(C(C)C)cc3)c3c(C(=O)OCC)c(N)oc3cc12
→ 0.24	-1.3
> CN1C(C(=O)c2ccccc2)=C(OC(=O)c2ccc(F)cc2)c2ccccc2S1(=O)=O
→ .	0.49
> CC1=C(C(=O)OCC2CCCCC2)C(c2ccc(F)cc2F)CC(=O)N1 (configuration not stated)
→ 1.5	-1.4
> Cc1[nH]c2ccccc2c1C(=O)CSc1nc2ncccc2[nH]1
→ 0.56	-1.4
> Cc1ccc(-c2csc(-n3[nH]c(C)c(CC(=O)N(C)C)c3=O)n2)cc1
→ 1	-0.45
> Oc1cc2c(cc1O)C(c1ccccc1)CNCC2 (configuration not stated)
→ .	-2.8
> COc1ccc(OC)c(C2C(C#N)=C(C)NC3=C2C(=O)CC(c2ccccc2)C3)c1 (configuration not stated)
→ 3.5	-1
> O=C(c1ccccc1)c1cn(Cc2ccc(Cl)cc2)c2cc3c(cc2c1=O)OCCO3
→ -0.58	-2.6
> Cc1ccc(Nc2nn3nnnc3c3ccccc23)c(C)c1
→ -6.5	.
> CC1(C)CC(CNCCC(c2ccc(F)cc2)c2ccco2)CCO1 (configuration not stated)
→ -1.2	-0.91
> COC(=O)C12CC3CC(C1)CC(C(=O)OC)(C3)C2
→ .	-0.27

Fetched by structure from the entries so far:
Each structure is followed by: TAR Tat displ	CDC25B CDK2 inh
> Oc1cc2c(cc1O)C(c1ccccc1)CNCC2 (configuration not stated)
→ .	-2.8
> CCOC(=O)c1c(N)oc2c(-c3ccc(C(C)C)cc3)c3c(C(=O)OCC)c(N)oc3cc12
→ 0.24	-1.3

(further entries)
Each structure is followed by: TAR Tat displ	CDC25B CDK2 inh
> COc1ccc(-c2noc(CN(C(=O)NC3CCCCC3)C3CCCCC3)n2)cc1OC
→ 1.6	0.23
> Cc1ccsc1CCNS(=O)(=O)c1ccc(-c2ccc(=O)[nH]n2)o1
→ 0.68	.
> Cc1cc(NC(=O)C2COc3ccccc3C2)no1 (configuration not stated)
→ 0.8	.
> O=C(O)C1CCN(S(=O)(=O)c2cccc(Cl)c2)CC1
→ 1.9	-1.7
> Fc1ccccc1/C=C1\CCCC2=C1Nc1nnnn1C2c1ccccc1F (configuration not stated)
→ .	-0.99
> CCc1nn2cc(-c3ccc(C)cc3)nc2s1
→ 1.2	0.66
> O=C1C(=O)N(CCO)C(c2ccc(F)cc2)/C1=C(/O)c1ccc(Cl)cc1 (configuration not stated)
→ 0.15	-0.93
> Cc1ccc2c(c1)-c1c(cnn1CC(=O)N(C)c1cc(C)ccc1C)CO2
→ 1.8	-2
> Cc1ccc(S(=O)(=O)[C@H]2CS(=O)(=O)C[C@@H]2NCc2cccc(C)c2)cc1
→ -1.9	-0.8
> CCCCC(C(=O)O)N1C(=O)C2C3c4ccccc4C(c4ccccc43)C2C1=O (configuration not stated)
→ -0.08	-0.38
> Cn1c(=O)c(=O)n(C)c2cc(S(=O)(=O)N3CCCC3C(=O)NCc3cccs3)ccc21 (configuration not stated)
→ 0.56	-0.65
> CC1(C)CC(=O)c2cc(C(=O)Nc3nccs3)c(=O)oc2C1
→ -1.6	-0.32
> CC(C)CNC(=O)NCc1c(-n2cccc2)sc2c1CCN(C)C2
→ -8.2	0.86
> CCc1cccc(CC)c1NC(=O)C(Cl)Cl
→ .	-1.2
> Cc1nc(-n2[nH]c(C)c(CCC(C)C)c2=O)sc1C(=O)N1CCCC1
→ 0.4	-0.82
> CCOC(=O)c1cc(S(=O)(=O)Nc2ccc(F)cc2)[nH]n1
→ 0.81	.
> C[n+]1cccc(C(=O)[O-])c1
→ 1.3	.
> C1CN=C(NC23CC4CC(CC(C4)C2)C3)C1
→ .	-0.32
> O=C(C(c1ccccc1)N1Cc2ccccc2C1=O)N1CCc2ccccc2C1 (configuration not stated)
→ 0.47	.
> O=C1CCCc2cc(S(=O)(=O)N3CCc4ccccc4C3)ccc2N1
→ 2.8	.

Remaining list, next part.
compound	TAR Tat displ	CDC25B CDK2 inh
COc1ccc(C(=O)CSc2ccc3nnc(-c4ccc(C)cc4)n3n2)cc1	.	-6
Cc1c2oc3c(C)ccc(C(=O)N[C@@H]4C(=O)N[C@H](C(C)C)C(=O)N5CCC[C@H]5C(=O)N(C)CC(=O)N(C)[C@@H](C(C)C)C(=O)O[C@@H]4C)c3nc-2c(C(=O)N[C@@H]2C(=O)N[C@H](C(C)C)C(=O)N3CCC[C@H]3C(=O)N(C)CC(=O)N(C)[C@@H](C(C)C)C(=O)O[C@@H]2C)c(N)c1=O	-1.3	.
CNC(=O)c1c(NC(=O)c2cccs2)sc2c1CCC(C(C)(C)C)C2 (configuration not stated)	.	-0.4
CCOC(=O)c1sc(N2C(=O)c3oc4ccccc4c(=O)c3C2c2cccs2)nc1C (configuration not stated)	-0.4	0.86
CCCc1nnc2sc(NC(=O)C(C)C)nn12	1.7	-3
Cc1ccccc1-c1nc2c3c(C)c(C)n(CC(C)C)c3ncn2n1	0.54	-1.9
CC(=O)N(C(C)=O)N(C(C)=O)c1cc2ccccc2cn1	.	-0.82
CC1=C(C(=O)OCCOC(C)C)C(c2cc3c(cc2Br)OCO3)C2=C(CCCC2=O)N1 (configuration not stated)	1.1	-4.5
CC(C)(Cc1cc(=O)c2ccccc2[nH]1)C1CCCCC1	1	-1.8
C=CCOc1ccc(/C(O)=C2/C(=O)C(=O)N(CC3CCCO3)C23C(=O)N(C)c2ccccc23)cc1 (configuration not stated)	-0.09	0.69
Cc1cc(C)n(-c2nc(-c3ccc(F)cc3)cc(C(F)(F)F)n2)n1	-1	-1.2
CCCCCCNc1nc2c(c(=O)[nH]c(=O)n2C)n1C(C)C	0.06	0.16
CCc1ccc(-c2cc(C)no2)cc1S(=O)(=O)NCc1cccnc1	-0.22	.
CCOC(=O)C1=C(C)N(CCCC(=O)OC)C(=O)NC1c1ccc(Br)cc1 (configuration not stated)	0.86	.
CC1CN(S(=O)(=O)c2ccc3c(c2)C(=O)c2cc(S(=O)(=O)N4CC(C)OC(C)C4)ccc2-3)CC(C)O1 (configuration not stated)	.	-3.5
Brc1ccc(OCc2nc(-c3ccc(-n4cccc4)cc3)no2)cc1	-1.6	-1.3
O=C(CC1=NS(=O)(=O)c2ccccc2N1)N1CCN(c2ccccc2)CC1	1.5	.
CC(CC(=O)Nc1ccccc1)S(=O)(=O)c1ccc2c(c1)CCN2C(=O)C1CC1 (configuration not stated)	-0.25	.
CCCN(C1=NC2CS(=O)(=O)CC2S1)c1ccc(CC(=O)OC)cc1 (configuration not stated)	1.6	1
Cc1ccc(C(=O)NCc2ccc3c(c2)OCO3)cc1NC(=O)C1=CSCCO1	1.6	.

Compounds listed so far that contain a Cl atom (nine):
compound	TAR Tat displ	CDC25B CDK2 inh
COc1ccc(-c2noc(=O)n2Cc2ccccc2Cl)cc1	1.6	-0.11
Fc1ccc(-c2nnc3ccc(NCc4ccccc4Cl)nn23)cc1	.	-4.2
CCc1nn(C(C)C(=O)N2CCN(c3ccc(Cl)cc3)CC2)c(=O)c2cc3occc3n12 (configuration not stated)	2.2	-2.2
CC(=O)N1N=C(c2ccncc2)OC1c1cc2c(cc1Cl)OCO2 (configuration not stated)	0.98	.
Cc1ccc(C)c(S(=O)(=O)Nc2ncn(Cc3ccc(Cl)cc3)n2)c1	-0.17	-0.85
O=C(c1ccccc1)c1cn(Cc2ccc(Cl)cc2)c2cc3c(cc2c1=O)OCCO3	-0.58	-2.6
O=C(O)C1CCN(S(=O)(=O)c2cccc(Cl)c2)CC1	1.9	-1.7
O=C1C(=O)N(CCO)C(c2ccc(F)cc2)/C1=C(/O)c1ccc(Cl)cc1 (configuration not stated)	0.15	-0.93
CCc1cccc(CC)c1NC(=O)C(Cl)Cl	.	-1.2

Other records:
compound	TAR Tat displ	CDC25B CDK2 inh
Cc1ccc(-c2c[nH]c(=S)n2C)cc1	.	-3
Cc1ccnc(NC(c2ccsc2)c2ccc3cccnc3c2O)c1 (configuration not stated)	.	0.29
CCn1cc2nc(SCc3ccc(F)cc3)n(Cc3ccc(C)cc3)c(=O)c2n1	-0.44	.
CCn1c2ccccc2c2nnc(SCC(=O)N3CCCc4ccccc43)nc21	0.99	1.1
CC1=NN(C(=O)c2ccc(C)o2)C(O)(c2ccccc2)C1 (configuration not stated)	.	-1.4
Cc1c(-c2nc(-c3ccccc3F)no2)nnn1-c1ccc(Cl)cc1	0.47	.
CC(O)(CS(=O)(=O)c1ccc(Cl)cc1)CS(=O)(=O)c1ccc(Cl)cc1	.	-1.2
CCOCCCN(Cc1ccco1)S(=O)(=O)c1cc2c(cc1C)NC(=O)CO2	2.8	.
C=CCN1C(=O)C(O)(CC(=O)c2cc(C)ccc2C)c2ccccc21 (configuration not stated)	-0.17	-1.6
O=S(=O)(c1ccc(Cl)cc1)c1cn[nH]c1-c1ccc(Cl)cc1	.	-0.63
O=C(Oc1cc(OC(=O)c2ccccc2)c2c(c1)O[C@H](c1ccc(OC(=O)c3ccccc3)c(OC(=O)c3ccccc3)c1)[C@@H](OC(=O)c1ccccc1)C2)c1ccccc1	-0.12	.
C=CCNc1oc(-c2ccc(COc3ccc(Cl)cc3)o2)nc1C#N	-0.78	-0.03
CC(C)(C)c1nnc2sc(SCC(=O)Nc3ccc4c(c3)OCO4)nn2c1=O	1.4	.
CC(C)OCCCNC(=O)c1cc2c(=O)n3ccccc3nc2s1	.	-0.11
CCc1nn(CC(=O)NCCCN(CC)CC)c(=O)c2cc3occc3n12	1.7	0.09
N#Cc1ccc(NC(=O)c2ccc(OC(F)(F)F)cc2)cc1	.	-0.74
Cc1ccc(-c2nnc(C3CCN(S(=O)(=O)c4ccc(C)cc4)CC3)o2)cc1	1.8	-0.75
Cc1n[nH]c(C)c1CCCCCOc1ccccc1Br	-0.3	-0.19
CCOc1cc(CNCCSc2nnnn2C)cc(Br)c1OC	0.57	1.1
Nc1cc(Cc2cc(N)cc(C(F)(F)F)c2)cc(C(F)(F)F)c1	.	-1
O=C(CSc1nc2ccccc2s1)c1ccc(-c2ccccc2)cc1	.	-14
Cc1nn(-c2ccc(N3CCCC3)nn2)c(C)c1CCC(=O)NCCC(C)C	0.13	.
CCC(C)NC(=O)C1CCN(C(=O)c2cc3sccc3n2Cc2ccc(F)cc2)CC1 (configuration not stated)	.	-1.8
COc1ccc(N2CCN(C(=O)C3CCCN3c3nnc(N4CCCC4=O)s3)CC2)cc1 (configuration not stated)	0.63	.
O=C1NS(=O)(=O)c2ccccc21	1.3	.
Cc1csc(NC(=O)Nc2ccccc2Cl)n1	1.1	-0.75
CC1=C(c2ccccc2)S(=O)(=O)N=C1Nc1cc(Cl)ccc1C	-2	-7.3
COc1ccc(S(=O)(=O)c2cnc3cc(OC)c(OC)cc3c2NCc2ccccc2)cc1	1.4	4
CCc1ccc(-c2cc(C)no2)cc1S(=O)(=O)NC(C)CC (configuration not stated)	0.26	.
Cn1c(Cn2c(=O)sc3ccccc32)nnc1SCC(=O)N1CCCc2ccccc21	.	0.46

From PubChem BioAssay
